From PubChem
TRPML1 ag: agonists of human TRPML1 channel; Q9GZU1; TRPML1-expressing cells, Ca2+ dye fluorescence, FDSS; host cell line not named in the record; reference of the full effect not given here; activation, % (test concentration not listed); actives 0.12% (n = 410,000); AID 624414; in the data active = activation above about 50%; inconclusive = about 30% to 50%; inactive = below about 30%; further: 0% is about no effect; the text of the record puts the active cut at 80%
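TRPML1-DL cells, Tet-induced overnight (~16 h, 37 degrees C), loaded 45-90 min at room temperature with Ca8 no-wash calcium dye plus quencher. FDSS fluorescence: 10 s baseline, compound pin-transfer, 110 s agonist read, then EC80 54-4 (4uM final) and 110 s antagonist read.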
Six1-Eya2 inh: Six1/Eya2 interaction inhibition; Q15475+O00167; AlphaScreen GST-Six1/His-Eya2 binding, biochemical; active compounds read low; control for the full effect not named in the record; activity change, % (no concentration beside the values); actives 0.56% (n = 360,000); in the data active = activity change below about -65%; inconclusive = about -30% to -65%; inactive = above about -30%; further: on the % scale 0 is the no-effect control and ±100 the full control effect
Target sequence (O00167 whole entry, looked up): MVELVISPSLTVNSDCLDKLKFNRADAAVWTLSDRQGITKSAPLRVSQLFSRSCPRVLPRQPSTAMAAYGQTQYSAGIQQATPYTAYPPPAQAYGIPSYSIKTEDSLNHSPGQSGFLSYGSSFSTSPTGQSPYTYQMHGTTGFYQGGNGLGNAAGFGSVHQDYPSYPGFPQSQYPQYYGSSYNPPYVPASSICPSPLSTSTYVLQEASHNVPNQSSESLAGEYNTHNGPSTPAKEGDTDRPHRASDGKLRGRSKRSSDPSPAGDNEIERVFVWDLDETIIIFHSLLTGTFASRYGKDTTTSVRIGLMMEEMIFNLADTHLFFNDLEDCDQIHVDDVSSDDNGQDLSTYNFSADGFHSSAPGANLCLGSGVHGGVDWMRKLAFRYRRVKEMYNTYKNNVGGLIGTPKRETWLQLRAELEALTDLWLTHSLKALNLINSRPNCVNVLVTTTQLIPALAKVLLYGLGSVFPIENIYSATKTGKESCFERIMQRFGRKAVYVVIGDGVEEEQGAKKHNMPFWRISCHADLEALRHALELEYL
Target sequence (Q15475 whole entry, looked up): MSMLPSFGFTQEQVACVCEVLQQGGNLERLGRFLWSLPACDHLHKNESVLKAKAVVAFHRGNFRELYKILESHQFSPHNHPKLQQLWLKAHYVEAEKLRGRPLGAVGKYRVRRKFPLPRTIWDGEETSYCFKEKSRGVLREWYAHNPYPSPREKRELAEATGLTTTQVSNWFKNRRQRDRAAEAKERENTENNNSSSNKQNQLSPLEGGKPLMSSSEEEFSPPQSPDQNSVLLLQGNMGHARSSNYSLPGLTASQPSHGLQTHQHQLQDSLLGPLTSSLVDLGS
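AlphaScreen luminescence read after one hour at 37 °C in darkness. Pin-transferred compounds met GST-Six1 and His-Eya2 protein (5X stock 250 nM/500 nM) plus glutathione donor and Ni-chelate acceptor beads (5X, 50 ug/mL).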
D2 potentiator: positive allosteric modulators of human D2 dopamine receptor | P14416 | DiscoveRx D2 beta-arrestin cells, luminescence, 90 min; 100% = 57 uM dopamine signal | potentiation, % (no concentration beside the values) | actives 0.23% (n = 360,000); active = potentiation of 50% or more; inconclusive = 30% to 50%; inactive = 30% or less;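 further: compound concentration not given in the record; tested on top of an EC20 dose of dopamine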
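D2 cells co-treated with compound plus 50 nM dopamine (EC20) for 90 min at 37 deg C to detect potentiation. Beta-arrestin recruitment was read as enzyme-fragment luminescence after 1 h at ambient temperature. Full response was set by 57 uM dopamine.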
CtBP-E1A blk: CtBP/E1A binding inhibition. AlphaScreen GST-E1A/His-CtBP binding, 1536-well; active compounds read low; control for the full effect not named in the record. activity change, % (no concentration beside the values). actives 0.49% (n = 340,000). AID 651724; in the data active means activity change below about -65%; inconclusive means about -30% to -65%; inactive means above about -30%; further: on the % scale 0 is the no-effect control and ±100 the full control effect
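Homogeneous bead-based format: GST-tagged E1A captured on glutathione donor beads, His-tagged CtBP on nickel acceptor beads; compounds precede bead addition by 2 h at 37 °C.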
TRPML1 inh: inhibitors of human TRPML1 channel. activity change, negative = inhibition, % (concentration not given with the values). AID 624415. actives 0.02% (n = 390,000). TRPML1-inducible cells, Ca2+ dye fluorescence, FDSS; active compounds read low; inhibition of EC80 agonist-evoked calcium signal; in the data active means activity change below about -50%; inconclusive means about -30% to -50%; inactive means above about -30%;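 further: stimulus is agonist 54-4 at its EC80 concentration; on the % scale 0 is the no-effect control and ±100 the full control effect; the text of the record puts the active cut at -80%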
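Calcium fluorescence in TRPML1-DL cells induced overnight with Tet: a 110 s read after compound pin addition, then a 110 s antagonist read after challenge with 54-4 at 4 uM final (EC80).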
TRPV1 PAM: enhances activation of the human vanilloid receptor TRPV1. Q8NER1. TRPV1-expressing cells, Fluo-8 calcium influx, capsaicin EC20 potentiation; host cell line not named in the record; control for the full effect not named in the record. potentiation, % at 8.33 µM. actives 0.02% (n = 320,000). AID 540277; active means potentiation above 80%; inconclusive means 30% to 80%; inactive means below 30%; further: 0% is about no effect
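Fluo-8 calcium influx in TRPV1-expressing cells, kinetic read (ex 480/em 520 nm). Compound added and read 3 min for agonist activity, followed by capsaicin at EC20 final and 2 min further read for enhancement.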
Active calls of the source: *; ? = inconclusive; . = not tested or not shown; & = joins results of further samples. Outcome played no part in choosing rows; 0.95% or so of the library scored in one or more.

Each structure is followed by: TRPML1 ag | Six1-Eya2 inh | D2 potentiator | CtBP-E1A blk | TRPML1 inh | TRPV1 PAM
> C=C(C)c1cccc(C(C)(C)NC(=O)N2CCCC(C(N)=O)C2)c1 (configuration not stated)
  -0.4 | 16 | 12 | 1 | -8 | 4
> Cc1ccc(S(=O)(=O)N2CC=C(C(=O)NC3CCCC3)CC2)cc1
  0.9 | 4 | 3 | 3 | 4 | 2
> COc1ccccc1NC(=O)c1ccc(-c2ccccc2F)o1
  0.9 | -1 | -5 | 4 | 19 | -6
> Cc1ccc(NC(=S)NCCc2ccc(S(N)(=O)=O)cc2)c(C)c1
  -0.4 | -1 | -29 | -2 | -6 | .
> OCC(CBr)(CBr)CBr
  0.7 | 0 | -8 | -18 | 2 | 0
> COc1ccc(C2CC(c3cccs3)=NN2C(=O)c2ccc(Br)o2)cc1 (configuration not stated)
  0.1 | 1 | -23 | -9 | -8 | -4
> Cc1nc(-c2ccccc2)sc1-c1nc(-c2ccccc2)ncc1S(=O)(=O)c1ccccc1
  0.1 | 0 | -11 | 8 | 13 | -10
> COc1ccc(NC(=O)COc2ccccc2Cc2ccccc2)cn1
  0.7 | 2 | -14 | -5 | 7 | -8
> C/C(CC(=O)Nc1cc(C)cc(C)c1)=N\NC(=O)c1ccccn1
  0.7 | -29 | -11 | 4 | 0 | 16
> Cc1cc(NC(=O)C2CC2)ncc1NC(=O)C12CC3CC(CC(C3)C1)C2
  0.3 | 1 | 1 | 1 | 3 | 30
> C=CCc1ccc(OCCN2CCc3ccccc3C2)c(OC)c1
  0.3 | -9 | -25 | -3 | -2 | 8
> CN(CCn1ccnc1)Cc1cn(Cc2ccccc2)nc1-c1ccc2c(c1)OCO2
  0.5 | 3 | -4 | -7 | -1 | -3
> COc1ccc(C(=O)Cn2cnc3ccccc3c2=O)cc1OC
  0.0 | 8 | -2 | -3 | -27 | -10
> COc1ccc(CNC(=O)c2ccc(CS(=O)Cc3cccc(Cl)c3)o2)cc1 (configuration not stated)
  -1.0 | 3 | 2 | 0 | 13 | 0
> Cc1ccc(S(=O)(=O)Nc2cc(S(=O)(=O)N3CCCCC3)ccc2N2CCOCC2)cc1
  0.0 | 3 | -4 | 4 | -4 | -2
> COc1ccc(NCc2nnc(SCc3ccccc3)n2-c2ccc(OC)cc2)cc1
  0.5 | ? | -6 | ? | -2 | -8
> CCOC(=O)C(=Cc1cc(=O)c(OC)co1)C(=O)OCC
  -0.5 | 1 | 0 | 9 | 25 | -2
> COC(=O)c1ccc(CSc2nc(C(F)(F)F)c3c(c2C#N)CCC3)o1
  3.6 | 20 | 3 | 4 | -11 | .
> O=c1oc2ccccc2c(NCc2ccccc2)c1[N+](=O)[O-]
  0.2 | -5 | -22 | 1 | -8 | 18
> CCC(C)(C)NC(=O)c1ccc(S(=O)(=O)N2CCCCCC2)cc1
  0.6 | 14 | -7 | -1 | 2 | -13
> C=CCSc1nc2c(c(=O)n(C)c(=O)n2C)n1CC
  0.4 | -1 | -21 | 0 | 3 | 2
> O=C(NCCCN1CCOCC1)c1ccc(Sc2cccc(Cl)c2)c([N+](=O)[O-])c1
  -0.1 | -17 | -20 | -2 | -10 | -7
> O=C(c1ccc(F)cc1)C1CCN(C(=O)Nc2ccc(F)cc2)CC1
  0.2 | -1 | -10 | 5 | 2 | -12
> O=C(Nc1cccc(S(=O)(=O)N2CCCCCC2)c1)c1ccc(=O)[nH]c1
  -0.7 | -17 | 10 | . | 7 | 4
> CCN1CCN(C(=O)/C=C/c2ccc(C)cc2)CC1
  0.9 | 3 | -31 | 4 | 27 | -27
> CNc1ccc(C(=O)OCC(=O)NC(=O)NC2CCCC2)cc1[N+](=O)[O-]
  2.8 | 2 | -3 | -10 | 18 | .
> Cc1cc(C)c(C#N)c(Nc2ccc3c(c2)OCCO3)n1
  -0.3 | 3 | 2 | 2 | 13 | 9
> CC1CCc2cc(F)ccc2N1C(=O)CSc1nnc2c3ccccc3n(C)c2n1 (configuration not stated)
  1.6 | 2 | -5 | -5 | 27 | -2
> Cc1cc(Br)ccc1NC(=O)CN(C)C(=O)c1ccc2ccccc2n1
  -0.7 | 1 | -5 | 5 | -5 | -1
> O=C(COc1ccc(S(=O)(=O)NC2CCCCC2)cc1Cl)NCC1CCCO1 (configuration not stated)
  0.0 | 29 | -8 | 30 | -11 | -8

Entries shown so far with a cyano group (2):
Each structure is followed by: TRPML1 ag | Six1-Eya2 inh | D2 potentiator | CtBP-E1A blk | TRPML1 inh | TRPV1 PAM
> COC(=O)c1ccc(CSc2nc(C(F)(F)F)c3c(c2C#N)CCC3)o1
  3.6 | 20 | 3 | 4 | -11 | .
> Cc1cc(C)c(C#N)c(Nc2ccc3c(c2)OCCO3)n1
  -0.3 | 3 | 2 | 2 | 13 | 9

Random excerpt: five records from the list.
Each structure is followed by: TRPML1 ag | Six1-Eya2 inh | D2 potentiator | CtBP-E1A blk | TRPML1 inh | TRPV1 PAM
> O=c1oc2ccccc2c(NCc2ccccc2)c1[N+](=O)[O-]
  0.2 | -5 | -22 | 1 | -8 | 18
> O=C(Nc1cccc(S(=O)(=O)N2CCCCCC2)c1)c1ccc(=O)[nH]c1
  -0.7 | -17 | 10 | . | 7 | 4
> CCOC(=O)C(=Cc1cc(=O)c(OC)co1)C(=O)OCC
  -0.5 | 1 | 0 | 9 | 25 | -2
> COc1ccc(NCc2nnc(SCc3ccccc3)n2-c2ccc(OC)cc2)cc1
  0.5 | ? | -6 | ? | -2 | -8
> Cc1cc(Br)ccc1NC(=O)CN(C)C(=O)c1ccc2ccccc2n1
  -0.7 | 1 | -5 | 5 | -5 | -1

(continued)
Each structure is followed by: TRPML1 ag | Six1-Eya2 inh | D2 potentiator | CtBP-E1A blk | TRPML1 inh | TRPV1 PAM
> COc1cc(OC)cc(-c2c(-c3ccc(F)cc3)c3cc(-c4ccc(OC)nc4)ccc3n2C)c1
  0.1 | -9 | -3 | -7 | 22 | .
> CCCC1(c2ccccc2)NC(=O)N(CC(=O)Nc2ccc(N3CCOCC3)cc2)C1=O (configuration not stated)
  0.4 | -6 | -1 | 1 | -18 | .
> Cn1cc(-c2ccccc2C(=O)O)c(=O)c2cc(Cl)ccc21
  -0.5 | 9 | 1 | -10 | -1 | 5
> Cc1ccccc1NC(=O)c1ccc2c(c1)OCCO2
  -0.8 | 6 | 3 | 2 | -17 | -8
> CCc1cccc(CC)c1NC(=O)COC(=O)/C(C#N)=C/c1ccc(OC)cc1
  0.1 | 11 | -15 | 13 | 7 | 2
> NC(=O)CSc1nnc(C2CC2)n1-c1ccccc1
  -0.6 | 5 | -11 | -3 | 4 | -10
> S=C(NCc1ccccc1)NCc1ccc2c(c1)OCO2
  -0.5 | 1 | 2 | 2 | -14 | -10
> COc1ccccc1CN(C)C(=O)c1ccccc1SCC(=O)N1CCCC1
  -0.1 | 0 | 1 | 3 | 5 | 0
> COc1ccc(-c2cc3c(=O)n(CC(=O)NCCCN4CCC(N5CCCCC5)CC4)ncn3n2)cc1
  -0.2 | -3 | -8 | 0 | ? | -4
> CCN1C(=O)[C@H]2[C@@H](c3ccc(C)cc3)N3C(=O)N(c4cccc(Cl)c4)C(=O)[C@@]3(Cc3ccccc3)[C@H]2C1=O
  -0.3 | -10 | -5 | 2 | -17 | -2
> COCCn1c(C)cc(C(=O)CSc2nc3ccccc3c(=O)n2C(C)COC)c1C (configuration not stated)
  2.5 | -11 | 3 | -17 | 29 | -6
> COCCCn1c(C(=O)NCCN2CCOCC2)cc2c(=O)n3ccccc3nc21
  1.4 | -18 | 9 | -11 | 20 | 2
> O=C(c1ccccc1NS(=O)(=O)c1ccc(Br)s1)N1CCOCC1
  -0.5 | 0 | 3 | 17 | 15 | 7
> Fc1cccc(-c2cncc(N3CCN(CCN4CCCC4)CC3)n2)c1
  0.1 | -6 | -8 | -1 | . | .
> CCCC(=O)Nc1ccc(N2CCOCC2)cc1
  -0.5 | 9 | 11 | -3 | 7 | .
> CCCCCCn1c(N2CCCC2)nc2c1c(=O)n(C)c(=O)n2C
  0.9 | -10 | -2 | -9 | -9 | ?
> COc1ccc(C(=O)Nc2sc3c(c2C(=O)NCc2ccco2)CCCC3)cc1OC
  -0.5 | 5 | -13 | 5 | 5 | 0
> CC(/C=N/NC(=O)c1ccc(CN2c3cccc4cccc(c34)S2(=O)=O)cc1)c1ccccc1 (configuration not stated)
  1.2 | 2 | 2 | 2 | 37 | 11
> CCOC(=O)C1(CCc2ccccc2)CCN(C(=O)c2occc2C)CC1
  3.6 | -2 | -13 | -11 | -10 | -13
> Cc1cc(C)c2cc(CN(CCN(C)C)C(=O)Nc3ccccc3Cl)c(=O)[nH]c2c1
  3.0 | -3 | 16 | . | 17 | 9
> CC1CCCCN1C(=O)c1c(Cl)cnn1C (configuration not stated)
  0.3 | 6 | 8 | 8 | 8 | -5
> COc1ccc([N+](=O)[O-])cc1N(CC(O)CN1CCCCC1)S(=O)(=O)c1ccc(C)cc1 (configuration not stated)
  0.5 | -1 | -15 | -7 | -2 | -1
> CN(C)C(=O)Cn1cc(S(=O)(=O)Cc2ccccc2)c2ccccc21
  -0.6 | 0 | -2 | 2 | 42 | -7
> COc1ccc(S(=O)(=O)N2CCN(CC(=O)Nc3cc(OC)cc(OC)c3)CC2)cc1
  -0.6 | -5 | -13 | -1 | -10 | 1
> CSc1c(CC(=O)Nc2ccc(F)cc2)n(Cc2ccccc2)c2ccccc12
  -0.6 | 5 | -3 | -1 | 4 | 12
> NC(=O)C1CCN(c2nc(-c3ccc(Br)cc3)cs2)CC1
  0.7&-0.2&-0.4 | -3&-19&7 | -6&-8 | -6&-2 | 5&4 | -17&7
> COc1cccc(NC(=O)Cn2nnc(C(=O)Nc3ccccc3)c2N)c1
  0.0 | -14 | -11 | -16 | -6 | -3
> C#CCSc1nnc(CNS(=O)(=O)c2ccc(Br)cc2)n1C
  0.7 | 22 | -4 | 7 | 0 | -2
> Cn1c2ccc(Cl)cc2c2nc3ccccc3nc21
  -0.6 | 0 | -2 | -8 | 21 | -3
> CC(C)(C)NC(=O)CSc1nccn1Cc1ccccc1
  -0.5 | 2 | -5 | 7 | -7 | -3
> CCCn1c(NC(=O)CN2C(=O)NC3(CCCC3)C2=O)nc2ccccc21
  -0.5 | 2 | -14 | 3 | 5 | -26
> O=C(NCc1ccc(F)cc1)C(=O)NCC(c1ccco1)N1CCOCC1 (configuration not stated)
  . | 1 | -6 | -10 | . | ?
> CNCCOc1ccc(Cl)c(Cl)c1
  1.4 | 0 | -19 | -19 | 2 | -6
> Cc1cc(N2CCN(c3nc(-c4ccccc4)cs3)CC2)c2ccccc2n1
  -1.5 | -3 | -15 | -1 | -6 | 12
